Six1-Eya2 inh: blocks human Six1 binding to Eya2. Q15475+O00167. AID 651725. actives 0.56% (n = 360,000). activity change, % (test concentration not listed). AlphaScreen GST-Six1/His-Eya2 binding, biochemical; active compounds read low; control for the full effect not named in the record; in the data active = activity change below about -65%; inconclusive = about -30% to -65%; inactive = above about -30%; note: % is set by controls: 0 for no effect and ±100 for the full control effect
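GST-Six1 + His-Eya2 (5X stock: 250/500 nM); Tris pH 8.0, 300 mM NaCl, 0.05% BSA, 0.02% Tween 20; GSH donor/Ni acceptor beads; 1 h 37 °C dark; AlphaScreen readout.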
TRPML1 inh: human mucolipin-1 channel inhibition; Q9GZU1; TRPML1-inducible cells, Ca2+ dye fluorescence, FDSS; active compounds read low; inhibition of EC80 agonist-evoked calcium signal; activity change, negative = inhibition, % (test concentration not listed); actives 0.02% (n = 390,000); AID 624415; in the data active means activity change below about -50%; inconclusive means about -30% to -50%; inactive means above about -30%;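 note: stimulus is agonist 54-4 at its EC80 concentration; % is set by controls: 0 for no effect and ±100 for the full control effect; compound concentration not given in the record; the text of the record puts the active cut at -80%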
Target sequence (Q9GZU1 whole entry, looked up): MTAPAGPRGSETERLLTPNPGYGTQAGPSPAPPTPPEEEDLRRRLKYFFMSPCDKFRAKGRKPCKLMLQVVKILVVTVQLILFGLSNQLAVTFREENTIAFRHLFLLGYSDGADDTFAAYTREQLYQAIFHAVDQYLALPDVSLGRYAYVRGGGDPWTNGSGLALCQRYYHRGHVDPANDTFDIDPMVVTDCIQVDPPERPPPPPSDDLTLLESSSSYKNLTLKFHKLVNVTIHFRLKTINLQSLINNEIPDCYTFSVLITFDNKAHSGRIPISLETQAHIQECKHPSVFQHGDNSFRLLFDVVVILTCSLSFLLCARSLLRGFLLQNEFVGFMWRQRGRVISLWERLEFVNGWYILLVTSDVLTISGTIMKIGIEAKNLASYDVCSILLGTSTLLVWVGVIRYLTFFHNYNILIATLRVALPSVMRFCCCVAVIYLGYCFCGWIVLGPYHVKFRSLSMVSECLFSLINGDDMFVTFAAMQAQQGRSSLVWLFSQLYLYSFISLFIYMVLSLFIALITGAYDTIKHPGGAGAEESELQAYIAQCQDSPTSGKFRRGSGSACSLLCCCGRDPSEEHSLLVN
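TRPML1-DL cells, Tet-induced overnight (~16 h, 37 °C) at 1,500 cells/well, were loaded with Ca8 no-wash dye plus quencher for 45-90 min at room temperature. Compounds were pinned during FDSS kinetic reading; agonist 54-4 at EC80 (4 uM final) then added.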
PINK1 modulator: changes PINK1 expression. PINK1 immunofluorescence, high-content cytometry, 24 h. Potency, µM (titrated, usually from 76.6 µM), for inactives: at the top dose activation (PINK1 increase), actives largely listed as activators. actives 0.2% (n = 410,000). AID 624263; active = well fitted activation curve with a large enough effect; inconclusive = small, poorly fitted or top-dose-only effect; inactive = flat fitted curve, though single readings scatter; cell line not stated here;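 note: potency is the fitted concentration of half-maximal effect; % of control where 0% means no effect; nearly all actives have a fitted effect of over 65% in size; a mitochondrial uncoupler was the plate control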
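A stable cell line was treated with compounds at 5 concentrations for 24 hours, with CCCP as control. PINK1 levels and mitochondrial localization were measured by immunofluorescence with mitochondrial, cell and nuclear markers after fixation, read by laser-scanning cytometry.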
CtBP-E1A inh: blocks the CtBP interaction with E1A | AlphaScreen GST-E1A/His-CtBP binding, 1536-well; active compounds read low; control for the full effect not named in the record | activity change, % (test concentration not listed) | actives 0.49% (n = 340,000); in the data active means activity change below about -65%; inconclusive means about -30% to -65%; inactive means above about -30%; note: % is set by controls: 0 for no effect and ±100 for the full control effect
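In 5 uL wells, 23 nL compound meets equimolar GST-E1A and His-CtBP (5X stock 125 nM each) for 2 h, 37 °C. Beads (5X, 50 ug/mL) then 1 h, 37 °C, dark.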
TRPML1 ag: activates the human TRPML1 channel; actives 0.12% (n = 410,000); activation, % (no concentration beside the values); TRPML1-expressing cells, Ca2+ dye fluorescence, FDSS; host cell line not named in the record; reference of the full effect not given here; in the data active = activation above about 50%; inconclusive = about 30% to 50%; inactive = below about 30%; note: 0% is about no effect; the text of the record puts the active cut at 80%
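Calcium fluorescence on an FDSS kinetic reader gave the read-out. Tet-induced TRPML1-DL cells were plated overnight, dye-loaded (Ca8 with quencher, 45-90 min, room temperature, dark), then read 110 s after compound addition, and again 110 s after 4uM final 54-4 (EC80).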
D2 agonist: activates the human D2 dopamine receptor; DiscoveRx PathHunter D2 beta-arrestin, luminescence, 90 min; 100% = 57 uM dopamine signal; actives 0.084% (n = 360,000); P14416; AID 624465; activation, % (test concentration not listed); in the data active = activation above about 40%; inconclusive = about 15% to 40%; inactive = below about 15%; note: compound concentration not given in the record; the text of the record calls up to 30% inactive
Target sequence (P14416 whole entry, looked up): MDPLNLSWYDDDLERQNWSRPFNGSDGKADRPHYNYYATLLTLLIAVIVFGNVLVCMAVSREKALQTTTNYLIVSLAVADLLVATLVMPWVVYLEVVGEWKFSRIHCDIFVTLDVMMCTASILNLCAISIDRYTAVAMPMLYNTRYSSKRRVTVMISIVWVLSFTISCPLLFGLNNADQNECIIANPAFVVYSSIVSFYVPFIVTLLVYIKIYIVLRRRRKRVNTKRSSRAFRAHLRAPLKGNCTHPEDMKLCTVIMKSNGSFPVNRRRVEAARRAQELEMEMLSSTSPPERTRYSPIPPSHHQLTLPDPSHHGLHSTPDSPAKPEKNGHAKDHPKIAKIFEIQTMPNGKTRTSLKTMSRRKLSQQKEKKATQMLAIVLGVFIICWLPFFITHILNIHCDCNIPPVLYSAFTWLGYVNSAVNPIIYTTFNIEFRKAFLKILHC
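Agonist mode: compounds alone added to overnight-plated D2 PathHunter cells for 90 min at 37 C, with 57 uM final dopamine (EC100) defining full response. Beta-arrestin recruitment detected by chemiluminescent reagent, read after 1 h at ambient temperature.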
* marks the source's active call; other numbers are inactive results; u = inconclusive; x = not tested or not shown; [ ] = remark or other dose.

SMILES,TRPML1 inh,TRPML1 ag,Six1-Eya2 inh,D2 agonist,CtBP-E1A inh,PINK1 modulator
Cc1nc(S/C(=C/c2ccc(-c3ccc(C(=O)O)cc3)o2)C(=O)O)n[nH]1,-17.5,0.5,-27.4,-5.5,-0.4,-0.4%
COc1ccc(Cn2c(-c3ccc(C)cc3)nc3c(c(=O)c4ccccc4n3C)c2=O)cc1,12.9,9.6,0.5,-2.6,-2.5,3.9%
O=C(Cc1c[nH]c2ccccc12)N[C@@H](Cc1c[nH]c2ccccc12)C(=O)O,9.1,0.8,-4.5,6.7,-1.8,0.4%
CCOC(=O)c1ccc(-n2c(CCC(=O)O)ccc2-c2cccs2)cc1,20.3,1.1,0.0,-7.3,5.8,-0.7%
CCOc1ccnc2c1c(=O)n(Cc1cc(OC)cc(OC)c1)c(=O)n2C,-4.4,0.5,-12.0,-4.1,-14.2,0.2%
O=C(Cc1ccc(F)cc1)Oc1ccc(C(=S)N2CCCC2)cc1,36.3,0.2,-71.3*,-1.3,-1.2,-0.5%
CC(C(=O)O/N=C(\N)c1ccccn1)c1ccc([N+](=O)[O-])cc1 (centres undefined),10.0,0.3,-0.1,8.2,-5.3,3.5%
COc1ccc(NC(=O)Nc2ccc3c(c2)C(=O)N([C@@H](C)CO)C[C@@H](C)[C@@H](CN(C)S(=O)(=O)c2cccs2)O3)cc1,2.4,0.7,-24.6,-1.3,-17.4,2.7%
C=CCn1c(SCC(=O)NC(=O)NC)nnc1C1CCCCC1,17.0,1.6,3.8,-0.2,3.5,0.0%
Cc1nc2cc(C)c(C)cc2o1,u,1.0,6.4,0.3,0.0,3.5%
O=C(Nc1cnc2ccccc2c1)c1cccnc1,-14.2,-0.5,-6.7,-7.0,23.4,-1.0%
CCc1cccc2c(SCC(=O)NCC3CCCO3)nc(-c3ccc(F)cc3)nc12 (centres undefined),-4.1,0.4,4.5,-0.9,0.8,10.7%[38.3 µM]
CC(=O)c1cc(C#N)c(SCc2ccccn2)nc1C,-8.3,0.5,-9.2,2.6,0.1,-0.7%
Cc1nnc(NC(=O)c2nc(SC(C)C)ncc2Cl)s1,-10.8,0.2,x,x,x,3.2%
O=C(c1cc(COc2ccc(F)cc2F)on1)N1CCN(C(=O)c2ccco2)CC1,-1.1,0.2,-5.1,-4.0,-0.9,-0.4%
O=C(Nc1nnc(-c2cccs2)o1)c1cc(-c2ccccc2)nc2ccccc12,-8.1,-1.0,-16.1,-4.0,-5.2,0.4%
Cc1cc(C)c(OCC(=O)N(Cc2ccc(N(C)C)cc2)C2CCS(=O)(=O)C2)c(C)c1 (centres undefined),-0.9,1.0,-26.9,5.3,-9.7,-0.1%
O=C(CSc1nc(C2CCCCC2)nc2ccccc12)NCc1ccc2c(c1)OCO2,8.5,3.7,-3.1,-2.8,x,3.6%
CC1Cc2nc(SCC(=O)N3CCc4ccccc43)n(C)c(=O)c2S1 (centres undefined),-29.2,0.6,-1.3,0.5,11.8,1.2%
CCCC(=O)NC(Nc1c(C)n(C)n(-c2ccccc2)c1=O)C(Cl)(Cl)Cl (centres undefined),12.3,1.8,6.3,-3.1,x,1.3%
C/C(=N\NC(=O)COc1ccc([N+](=O)[O-])cc1)C(C)(C)C,3.1,0.8,-6.3,-0.5,0.0,u
OC[C@@H]1CN(Cc2ccc(Cl)cc2)C[C@H](n2cnc3c(NCc4ccncc4)ncnc32)O1,x,2.2,6.3,-2.5,-23.8,1.5%
Cc1c(C(=O)NC2CCN(Cc3ccccc3)C2)oc2c(Cl)cccc12 (centres undefined),5.4,1.0,4.0,10.8,4.2,2.0%
COc1ccccc1CNC(=O)CSc1nc(N)c(C#N)c(-c2cccs2)c1C#N,14.6,2.0,-1.3,1.9,-13.2,-0.7%
N#C/C(=C\c1cn(Cc2ccc(F)cc2)c2ccccc12)C(=O)NCc1ccco1,-2.6,-0.2,2.1,4.7,-5.5,u
CCC(=O)N1c2ccccc2CC1C(=O)NCCc1ccc(SC)cc1 (centres undefined),-0.3,0.3,x,x,x,3.5%
CC(=O)n1nc(-c2ccccc2)nc1NCc1ccc(N(C)C)cc1,0.5,3.6,-3.6,-19.7,-9.6,2.7%
CCCCC(O)(CCCC)C(=O)N/N=C(\C)c1ccc(Cl)cc1,-5.3,-0.6,-0.4,0.8,-3.5,14.0%
Cc1cccc(NC(=O)COC(=O)c2ccc([N+](=O)[O-])o2)c1C,16.6,-0.9,-5.6,1.7,3.6,-0.3%
CN(CCc1ccccn1)C(=S)Nc1ccc(Cl)cc1Cl,0.6,-0.2,2.4,-0.8,1.6,1.2%
Nc1nnnn1NCc1cccc(OCc2ccccc2)c1,26.5,-0.3,0.0,-1.2,-0.3,-0.3%
COc1ccc(CC(=O)Nc2nc(-c3ccc(OC)c(OC)c3)cs2)cc1OC,3.4,1.4,-11.7,-0.9,-10.7,2.6%
COc1ccc(-n2c(C)n[nH]c2=O)cc1OC,31.4,-0.3,-1.7,-3.3,4.3,-2.8%
COc1ccc(C(CCNC(C)c2ccccc2)C(C)C)cc1 (centres undefined),22.0,0.8,4.3,-0.8,-0.7,u
Cc1ccccc1C(=O)Nc1sc2c(c1C(=O)N1CCC(C)CC1)CCC(C)C2 (centres undefined),32.3,1.5,x,x,x,0.8%
O=C(O)c1cc(S(=O)(=O)N(Cc2ccccc2)c2cccc(C(F)(F)F)c2)ccc1Cl,-19.4,u,-5.0,3.0,x,-0.7%
O=C(CN1C(=O)/C(=C/c2ccccc2)Sc2ccccc21)NCCCN1CCOCC1,1.4,0.5,-0.5,4.7,-0.9,-0.8%
COc1cc(CN2CC(=O)N(c3cc(Cl)ccc3C)C2=S)cc(OC)c1OC,35.9,1.7,0.9,1.8,x,2.4%
Cc1sc2ncnc(N3CCC(C(=O)Nc4ccc(Cl)c(Cl)c4)CC3)c2c1C,10.1,0.1,-0.8,-1.5,-4.9,1.0%
COc1cccc2c1OC[C@@H](CO)[C@H]2N(C)C(=O)Nc1ccc(Cl)cc1,1.9,-0.3,0.0,-0.2,1.1,8.1%[38.3 µM]
c1ccc(Cn2cc(CSc3ccccc3)nn2)cc1,15.1,0.9,5.0,-2.3,8.6,1.4%
Cc1cccc(-c2nsc(SCC(=O)NCC3CCCO3)n2)c1 (centres undefined),7.0,-0.9,0.2,3.1,7.3,2.7%
CC1=C(C(=O)NCc2cccc(F)c2)C2(CCCCC2)OC1=O,-22.2,-0.6,x,x,x,1.0%
COc1ccc(Cn2cc(C(=O)c3ccc(F)cc3)c(=O)c3cc4c(cc32)OCCO4)cc1,-5.9,4.2,x,x,x,5.5%
O=C(O)C(SC(C(=O)O)c1ccccc1)c1ccccc1 (centres undefined),10.1,1.2,12.1,2.8,-6.5,1.7%
CC(=O)Nc1ccc(NS(=O)(=O)c2ccc(-c3csc(C)n3)s2)cc1,46.8,-1.1,-5.0,-1.0,0.3,0.8%
Cc1ccc(Nc2sc(C(=O)c3ccc(F)cc3)c(N)c2S(=O)(=O)c2ccc(C)cc2)cc1,23.3,4.6,x,x,x,2.8%
COc1ccc(C(=O)COC(=O)c2ccc(NC(C)=O)cc2)cc1[N+](=O)[O-],-11.7,-0.7,-2.3,-2.0,0.3,0.6%

Entries from the list above that contain a cyano group, in the order listed:
SMILES,TRPML1 inh,TRPML1 ag,Six1-Eya2 inh,D2 agonist,CtBP-E1A inh,PINK1 modulator
CC(=O)c1cc(C#N)c(SCc2ccccn2)nc1C,-8.3,0.5,-9.2,2.6,0.1,-0.7%
COc1ccccc1CNC(=O)CSc1nc(N)c(C#N)c(-c2cccs2)c1C#N,14.6,2.0,-1.3,1.9,-13.2,-0.7%
N#C/C(=C\c1cn(Cc2ccc(F)cc2)c2ccccc12)C(=O)NCc1ccco1,-2.6,-0.2,2.1,4.7,-5.5,u

New compounds follow:
SMILES,TRPML1 inh,TRPML1 ag,Six1-Eya2 inh,D2 agonist,CtBP-E1A inh,PINK1 modulator
CCCn1c2ccccc2c2cnn(CC(=O)N3CCC(C(=O)OCC)CC3)c(=O)c21,13.4,0.0,x,x,x,1.1%
CC(C)Cn1c(CN(Cc2ccccc2)Cc2ccccc2)nc2c1c(=O)n(C)c(=O)n2C,51.8,-0.8,-7.0,-1.9,-0.7,u
O=C(NC1C2CC3CC(C2)CC1C3)c1ccc(N2CCNCC2)c([N+](=O)[O-])c1 (centres undefined),-12.5,0.1,0.9,-3.4,2.9,1.9%
O=C(Nc1nnc(SCC(=O)N2CCCc3ccccc32)s1)c1ccccc1,3.2,1.9,1.7,0.1,10.1,-0.5%
COc1ccc(S(=O)(=O)N2CCN(C(=O)C3CC3)CC2)cc1,0.3,0.1,12.3,-2.7,-2.0,-0.8%
O=C(CCCn1c(=O)[nH]c2cc(Cl)ccc2c1=O)NC1CCCCCC1,3.1,-0.6,-0.9,-3.1,2.1,-2.7%
COc1cc(/C=C2\N=C(c3ccccc3)OC2=O)ccc1OCc1c(C)no[n+]1[O-],-4.5,5.3,-1.7,0.3,-11.6,-1.9%
COc1ccc(CCN(C)Cc2nc(-c3cnccn3)no2)cc1OC,-13.2,0.3,4.7,-2.4,4.5,-0.6%
COc1ccccc1CCNC(=O)C(=O)NCC(c1ccco1)S(=O)(=O)c1ccc(C)cc1 (centres undefined),10.1,1.1,x,x,x,0.4%
Cc1nonc1CN(C)C(=O)c1ccc(OC2CCN(C(=O)c3cccnc3)CC2)cc1,1.9,-0.4,4.4,-1.8,3.1,-1.7%
Cc1ccc(NS(=O)(=O)c2ccc(CCC(=O)NC3CC3)cc2)cc1,-8.5,-0.3,3.7,1.3,6.2,7.7%[38.3 µM]
CCOCCOC(=O)c1[nH]c2c(c1C)C(=O)CC(c1cc(OC)c(OC)c(OC)c1)C2 (centres undefined),-2.8,0.8,-0.8,14.0,-3.3,0.7%
CC(C)CC(NC(=O)C1CCC(C)CC1)C(=O)Nc1ccccn1 (centres undefined),28.0,0.1,1.9,-0.2,3.7,-0.7%
CC(=O)NC1=NN(C(C)=O)C(C)(c2cccnc2)S1 (centres undefined),24.4,0.9,0.9,0.1,-1.3,4.7%
COc1ccccc1NC(CC(=O)c1ccccc1)C(=O)OCC(=O)c1ccc(F)cc1 (centres undefined),u,0.9,-21.2,-0.8,-23.5,-1.3%
CCC(=O)Nc1cc(C(=O)OCC(=O)c2ccc(Cl)cc2Cl)ccc1C,-3.2,1.4,-0.1,-3.8,0.9,-1.6%[38.3 µM]
O=C(NCCc1ccc(Cl)cc1)c1cccn1-c1nnc(N2CCCC2)s1,-20.8,1.1,x,x,x,-1.1%
